Choline anaer gr = growth inhibitors of anaerobic choline-fed gram-negatives, minimal medium, absorbance; Gram-negative bacterium anaerobic choline minimal medium; active compounds read low; many inactives read as strong as hits in the columns shown; calls only; AID 1963822, 2024; 55,000 compounds, 0.2% hits;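 active = growth z-score on choline under -2 at 7 or 20 h with little or no fall on glycerol, limits in tiers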;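 note: stock transfer was 300 nL into about 50 µL; the organism is E. coli; final concentration not given here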
Choline anaer gr early = second read-out of Choline anaer gr, no call of its own (marks repeat the call); z-score; measured here: choline growth z-score, timepoint 1;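 score of optical density at 7 h as mean of two plates; lower means less growth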
* marks the source's active call; other numbers are inactive results. Only part of the results is shown (hit frequency here may not be typical).

COc1cccc(NC(=O)COc2cccc(-c3nc(-c4ccccc4)no3)c2)c1 was read as Choline anaer gr inactive and Choline anaer gr early 0.42.
For COC(=O)c1cc(OC)c(OC)cc1NC(=O)c1ccc2c(c1)CC(c1ccccc1)OC2=O (stereo unspecified) the results were Choline anaer gr inactive and Choline anaer gr early -0.51.
O=C(CCn1cnc2c(-c3ccc(F)cc3)noc2c1=O)NC1CC1 was read as Choline anaer gr inactive and Choline anaer gr early -0.29.
Screening Cc1ccc(-n2ccc(=O)c(-c3nc(-c4cccc(F)c4)no3)n2)cc1 returned Choline anaer gr inactive and Choline anaer gr early 1.06.
For COC(=O)c1c(NC(=O)C2=Cc3cc(C)ccc3OC=C2)sc2c1CCC(C)C2 (stereo unspecified) the results were Choline anaer gr inactive and Choline anaer gr early 0.61.
`CCn1cc(S(=O)(=O)N2CCCn3nc(-c4ccc(C(F)(F)F)cc4)cc3C2)cn1` gave Choline anaer gr inactive and Choline anaer gr early 0.25.
O=C(COc1ccccc1-c1nc(-c2ccccc2)no1)Nc1cccc(Cl)c1 was read as Choline anaer gr inactive and Choline anaer gr early -0.79.
Screening Cc1ccc(CN2C(=O)CC(c3ccc(C)cc3)CC2=O)cc1 returned Choline anaer gr inactive and Choline anaer gr early 0.37.
For Cn1c(=O)c2sccc2n2c(SCc3ccc(Br)cc3)nnc12 the results were Choline anaer gr inactive and Choline anaer gr early -0.16.
CN(C)c1ccc(C(=O)Nc2cccc(-c3nc4cccnc4s3)c2)cc1 was read as Choline anaer gr inactive and Choline anaer gr early 0.02.
O=C(NCc1ccccc1)C1CCN(c2ncnc3c2sc2cccc(F)c23)CC1 was read as Choline anaer gr inactive and Choline anaer gr early 0.22.
`Cc1ccc(COC(=O)c2nnn(-c3ccc(Br)cc3)c2C)c(C)c1` gave Choline anaer gr inactive and Choline anaer gr early 0.73.
Screening CCOC(=O)c1nc2ccccc2n(C(=O)c2ccc(F)cc2)c1=O returned Choline anaer gr inactive and Choline anaer gr early 0.79.
For Cc1nn(-c2cc(N(C)C)ncn2)c(C)c1CCC(=O)Nc1cccc(Br)c1 the results were Choline anaer gr inactive and Choline anaer gr early 0.5.
`CCc1cc(-c2csc(S(=O)(=O)N3CC=C(c4ccccc4)CC3)c2)on1` gave Choline anaer gr inactive and Choline anaer gr early 0.35.
`CCSc1nc2c(c(=O)[nH]1)C(C(=O)Nc1ccccc1C)CC(=O)N2` (stereo unspecified) gave Choline anaer gr inactive and Choline anaer gr early 0.86.
CNc1oc(-c2ccc(S(=O)(=O)N3CCOCC3)cc2)nc1C#N was read as Choline anaer gr inactive and Choline anaer gr early 0.02.
For O=C(Nc1ccnn1Cc1ccco1)c1ccc(Br)o1 the results were Choline anaer gr inactive and Choline anaer gr early -0.67.
`Cn1nccc1-c1csc(S(=O)(=O)N2CCCC2)c1` gave Choline anaer gr inactive and Choline anaer gr early -0.73.
For Cc1ccccc1-c1noc(CCc2nnc3ccc(N4CCOCC4)nn23)n1 the results were Choline anaer gr inactive and Choline anaer gr early 1.
`Cn1cnc(S(=O)(=O)N2CCC(C(=O)N3CCN(c4ccc(F)cc4)CC3)CC2)c1` gave Choline anaer gr inactive and Choline anaer gr early -0.35.
`COC(=O)CC1=CC(SCC(=O)NC(C)C)=Nc2cc(C)c(C)cc2N1` gave Choline anaer gr inactive and Choline anaer gr early -0.42.
c1ccc2c(-c3nc(-c4ccn5cnnc5c4)no3)n[nH]c2c1 was read as Choline anaer gr inactive and Choline anaer gr early -0.59.
Cc1c(Cl)cccc1NCc1nc2nc3c(c(=O)n2[nH]1)CCC3 was read as Choline anaer gr inactive and Choline anaer gr early 0.48.
Screening O=C(NCc1nnnn1-c1ccc(F)c(F)c1)C1CC(=O)N(c2ccccc2)C1 (stereo unspecified) returned Choline anaer gr inactive and Choline anaer gr early 0.34.
For COc1ccc(-c2cc(Oc3cccc(C(=O)Nc4cccc(OC)c4)c3)ncn2)cc1 the results were Choline anaer gr inactive and Choline anaer gr early 1.45.
`CCCCc1cnc2c(c1SC)c(=O)n(C)c(=O)n2C` gave Choline anaer gr inactive and Choline anaer gr early 0.99.
For CC(C)(C)c1ccc(S(=O)(=O)N2CCCN(c3ccc(=O)n(-c4ccc(F)cc4)n3)CC2)cc1 the results were Choline anaer gr inactive and Choline anaer gr early -0.45.
Screening COc1ccc(CCNC(=O)C2CCN(c3c(-n4c(C)ccc4C)c(C)nn3-c3ccccc3)CC2)cc1OC returned Choline anaer gr inactive and Choline anaer gr early 1.06.
For Cc1cccc(NC(=O)c2c(C)cc(C)nc2SCC(=O)Nc2nc3ccccc3s2)c1 the results were Choline anaer gr inactive and Choline anaer gr early 0.41.
`CNS(=O)(=O)c1c(C)[nH]c(=O)[nH]c1=O` gave Choline anaer gr inactive and Choline anaer gr early 0.83.
Screening COc1ccc(Oc2cc3c(cc2NS(=O)(=O)c2ccc(OC)cc2)n(C)c(=O)n3C)cc1 returned Choline anaer gr inactive and Choline anaer gr early 0.52.
CC1(C)Cc2nc3c(cc2CO1)c(=O)n(Cc1ccccc1)c(=O)n3CC(N)=O was read as Choline anaer gr inactive and Choline anaer gr early 0.02.
Screening O=C(C1CC(=O)N(c2ccc3c(c2)CCN3C(=O)C2CCC2)C1)N1CCCC1 (stereo unspecified) returned Choline anaer gr inactive and Choline anaer gr early 1.35.
COc1ccc(Nc2nc(C)c3nc(C)n(-c4ccc(OC)c(Cl)c4)c3n2)cc1Cl was read as Choline anaer gr inactive and Choline anaer gr early 0.03.
Cn1ncc2c(Nc3ccccc3F)ncnc21 was read as Choline anaer gr inactive and Choline anaer gr early -0.52.
`CC1(C(=O)NC2CCCC2)Cn2c(cc3ccccc32)C(=O)N1C1CCCCC1` (stereo unspecified) gave Choline anaer gr inactive and Choline anaer gr early -0.29.
Screening Cc1ccc2cc(-c3noc(CCC(=O)NC(C)C)n3)c(=O)[nH]c2c1 returned Choline anaer gr inactive and Choline anaer gr early 0.4.
Screening COC(=O)CNS(=O)(=O)c1cc(N2C(=O)CCS2(=O)=O)ccc1OC returned Choline anaer gr inactive and Choline anaer gr early -0.38.
For CCCCCCC(=O)Nc1cc2nc3[nH]c(=O)[nH]c(=O)c3nc2cc1C the results were Choline anaer gr inactive and Choline anaer gr early -0.88.

Ten compounds from above, ordered by number of heavy atoms, falling:
Screening COc1ccc(CCNC(=O)C2CCN(c3c(-n4c(C)ccc4C)c(C)nn3-c3ccccc3)CC2)cc1OC returned Choline anaer gr inactive and Choline anaer gr early 1.06.
Screening COc1ccc(Oc2cc3c(cc2NS(=O)(=O)c2ccc(OC)cc2)n(C)c(=O)n3C)cc1 returned Choline anaer gr inactive and Choline anaer gr early 0.52.
For COc1ccc(-c2cc(Oc3cccc(C(=O)Nc4cccc(OC)c4)c3)ncn2)cc1 the results were Choline anaer gr inactive and Choline anaer gr early 1.45.
`Cn1cnc(S(=O)(=O)N2CCC(C(=O)N3CCN(c4ccc(F)cc4)CC3)CC2)c1` gave Choline anaer gr inactive and Choline anaer gr early -0.35.
Screening O=C(NCc1nnnn1-c1ccc(F)c(F)c1)C1CC(=O)N(c2ccccc2)C1 (stereo unspecified) returned Choline anaer gr inactive and Choline anaer gr early 0.34.
For CCCCCCC(=O)Nc1cc2nc3[nH]c(=O)[nH]c(=O)c3nc2cc1C the results were Choline anaer gr inactive and Choline anaer gr early -0.88.
Screening Cc1ccc2cc(-c3noc(CCC(=O)NC(C)C)n3)c(=O)[nH]c2c1 returned Choline anaer gr inactive and Choline anaer gr early 0.4.
c1ccc2c(-c3nc(-c4ccn5cnnc5c4)no3)n[nH]c2c1 was read as Choline anaer gr inactive and Choline anaer gr early -0.59.
`CCCCc1cnc2c(c1SC)c(=O)n(C)c(=O)n2C` gave Choline anaer gr inactive and Choline anaer gr early 0.99.
`CNS(=O)(=O)c1c(C)[nH]c(=O)[nH]c1=O` gave Choline anaer gr inactive and Choline anaer gr early 0.83.

The results go on.
Screening CC(=O)OCC(=O)[C@@]1(O)CCC2C3CCC4=CC(=O)C=C[C@]4(C)[C@@]3(Cl)[C@@H](Cl)C[C@@]21C (stereo partly specified) returned Choline anaer gr inactive and Choline anaer gr early -2.63.
Cc1nn(-c2cc(N3CCCC3)ncn2)c(C)c1CCC(=O)N1CCN(c2ccccn2)CC1 was read as Choline anaer gr inactive and Choline anaer gr early -0.62.
Screening Cn1cc(S(=O)(=O)NCc2ccc(Cl)cc2)c(S(=O)(=O)NCc2ccc(Cl)cc2)c1 returned Choline anaer gr inactive and Choline anaer gr early 0.14.
Cc1noc(C)c1S(=O)(=O)N1CCC(c2c(C)n(Cc3cccc(F)c3)c3ccccc23)CC1 was read as Choline anaer gr inactive and Choline anaer gr early 1.01.
Cc1ccc(/C=C/c2onc(C)c2S(=O)(=O)N2CCCC(C(=O)N(C)Cc3ccccc3)C2)cc1 (stereo unspecified) was read as Choline anaer gr inactive and Choline anaer gr early 0.94.
COC(=O)c1sccc1NC(=O)Cn1cc(-c2nc(-c3ccc(Cl)cc3)no2)ccc1=O was read as Choline anaer gr inactive and Choline anaer gr early -0.44.
For CC(C)CCNC(=O)C1CCC(Cn2c(=O)c3sccc3n(CC(N)=O)c2=O)CC1 (stereo unspecified) the results were Choline anaer gr inactive and Choline anaer gr early -0.57.
For CCOC(=O)c1c(C)[nH]c(CCC(=O)NCCc2c[nH]c3ccc(OC)cc23)c1C the results were Choline anaer gr inactive and Choline anaer gr early 1.39.
For Cc1ccc(Cl)cc1NC(=O)c1[nH]c(C)c(S(=O)(=O)N2CCCC2)c1C the results were Choline anaer gr inactive and Choline anaer gr early 0.54.
Screening CCC(=O)Nc1cnc(N2CCN(c3cc(Cl)ccc3C)CC2)c(C(=O)O)c1 returned Choline anaer gr inactive and Choline anaer gr early 0.64.
For Cc1ccc(-c2ccc(N3CCCC(C(=O)NC4CC4)C3)nn2)cc1 (stereo unspecified) the results were Choline anaer gr inactive and Choline anaer gr early -0.02.
For O=c1[nH]c(SC/C=C/c2ccccc2)nc2c1cnn2-c1ccccc1 the results were Choline anaer gr inactive and Choline anaer gr early 0.38.
CCn1nccc1C(=O)N1CCCC(c2n[nH]c(C3CC3)n2)C1 (stereo unspecified) was read as Choline anaer gr inactive and Choline anaer gr early 0.16.
`CCCN1C(=O)c2c(C(=O)NCc3ccc(C)cc3)ncn2CC1(C)C(=O)NCc1ccccc1` (stereo unspecified) gave Choline anaer gr inactive and Choline anaer gr early 0.07.
For Cn1nc(C(=O)Nc2cccc(Cl)c2)c2c1-c1ccsc1CC2 the results were Choline anaer gr inactive and Choline anaer gr early 0.62.
`Cn1nc(COCc2ccccc2)c2c1CCN(S(=O)(=O)c1ccccc1F)C2` gave Choline anaer gr inactive and Choline anaer gr early -0.26.
Screening COc1ccccc1N1CCN(C(=O)CSc2nnc3ccc(C(=O)Nc4ccc(C)cc4)cn23)CC1 returned Choline anaer gr inactive and Choline anaer gr early 0.85.
For CCn1cc(S(=O)(=O)N2CCC(c3cc4n(n3)CCCNC4=O)CC2)cn1 the results were Choline anaer gr inactive and Choline anaer gr early -1.3.
Screening CON=C1C[C@]2(C[C@@H]3C[C@@H](C/C=C(\C)C[C@@H](C)/C=C/C=C4\CO[C@@H]5[C@H](O)C(C)=C[C@@H](C(=O)O3)[C@]45O)O2)O[C@H](/C(C)=C/C(C)C)[C@H]1C returned Choline anaer gr inactive and Choline anaer gr early 1.
`O=C(NCCCN1CCCC1)c1cccc(Nc2ncc(-c3cccc(F)c3)cn2)c1` gave Choline anaer gr inactive and Choline anaer gr early -0.71.
`CC(CS(=O)(=O)c1ccc2c(c1)NC(=O)CCS2)C(=O)N1CCc2ccccc2C1` (stereo unspecified) gave Choline anaer gr inactive and Choline anaer gr early 0.28.
For CCOC(=O)c1ccccc1NC(=O)C1=Cc2cc(C)ccc2OC=C1 the results were Choline anaer gr inactive and Choline anaer gr early 2.12.
`COc1ccccc1CN1CCN(C2CCN(C(=O)Nc3ccccc3)CC2)C(=O)C1=O` gave Choline anaer gr inactive and Choline anaer gr early -1.42.
O=S(=O)(Nc1nc2n(n1)C(c1ccccc1)C=C(c1ccc(Cl)cc1)N2)c1ccc(Cl)cc1 (stereo unspecified) was read as Choline anaer gr inactive and Choline anaer gr early 2.17.
For Cc1nn(-c2cc(N3CCCC3)ncn2)c(C)c1CCC(=O)Nc1ccc2c(c1)OCO2 the results were Choline anaer gr inactive and Choline anaer gr early -1.21.
Screening O=C(Nc1sc2c(c1C(Nc1ccccn1)c1ccccn1)CCCC2)c1ccccc1 (stereo unspecified) returned Choline anaer gr inactive and Choline anaer gr early -0.29.
Screening O=C(c1ccc(Nc2ccnc(-c3ccccc3)n2)cc1)N1CCCC1 returned Choline anaer gr inactive and Choline anaer gr early -0.33.
NS(=O)(=O)c1ccc(NC(=O)c2ccc(=O)n(Cc3ccc(F)cc3)c2)cc1 was read as Choline anaer gr inactive and Choline anaer gr early -0.33.
For Cc1nc(CCNC(=O)[C@H]2CCCN2S(=O)(=O)c2ccccc2)cs1 the results were Choline anaer gr inactive and Choline anaer gr early 0.51.
`Cc1cc(N2CCN(C)CC2)n2nc(CN3CCN(c4ccccn4)CC3)nc2n1` gave Choline anaer gr inactive and Choline anaer gr early 1.69.
Cc1nccn1CC(C)C(=O)NCc1nc2cccnc2n1Cc1ccc(F)cc1 (stereo unspecified) was read as Choline anaer gr inactive and Choline anaer gr early -0.84.
Screening CC(C)CNC(=O)CCn1c(=O)c2ccccc2n2c(SCC(=O)NC(C)C)nnc12 returned Choline anaer gr inactive and Choline anaer gr early -0.13.
`COc1ccc(C2C3=C(CC(C)(C)CC3=O)Nc3ccccc3N2C(=O)NCC2CCCO2)cc1` (stereo unspecified) gave Choline anaer gr inactive and Choline anaer gr early 0.12.
`CC(C)N1CCN(S(=O)(=O)c2cc(-c3nnc(C4CCC4)o3)co2)CC1` gave Choline anaer gr inactive and Choline anaer gr early 0.27.
Cn1nc(-c2nnc(-c3ccccc3)o2)c2c1CCN(S(=O)(=O)c1cccc3nsnc13)C2 was read as Choline anaer gr inactive and Choline anaer gr early -0.85.
Screening Cc1ccc(S(=O)(=O)NC2=NCN(C(C)C)CN2)cc1 returned Choline anaer gr inactive and Choline anaer gr early 0.38.

Screening data (PubChem BioAssay)
